gsp ag: agonists of gsp mutant (McCune-Albright syndrome). gsp mutant cells, cAMP HTRF, 30 min; control for the full effect not named in the record. Potency, µM (titrated, usually from 76.9 µM), for inactives: top-dose activation (cAMP increase), most hits filed as activators. hit rate 0.13% among 340,000. AID 624287; active = well fitted activation curve with a large enough effect; inconclusive = small, poorly fitted or top-dose-only effect, or another doubt; inactive = no such curve, though single readings can be large or run the other way; cell line not stated here;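 further: phosphodiesterase inhibitor Ro 20-1724 added with compounds to block cAMP breakdown; potency means the concentration at half of the fitted maximal effect; nearly all actives have a fitted effect of over 60% in size; about a fifth of the inactives were tested at one dose only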
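Cells in DMEM/10% FBS with G418 were pretreated with compounds in DMSO plus […] (300 uM stock) for 30 min at 37C. cAMP was measured by HTRF (cAMP-d2 plus anti-cAMP antibody-K) after 30 min at room temperature.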
Menin MLL FP FL: displaces fluorescein MLL peptide from human menin | Fluorescence polarization, fluorescein-MLL peptide displacement from menin | FP activity change, % at 61.4 µM | 290,000 tested, under 10 active | AID 1766; inconclusive = falling polarisation curve, or a change in total fluorescence; inactive = total fluorescence flat and polarisation flat or rising; no compound was filed as active; the % refers to the polarisation; negative = inhibition;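 further: % of control where 0% means no effect; inhibitors lower the polarisation; unlabelled MLL peptide was the positive control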
gsp antag: antagonizes gsp, the McCune-Albright syndrome mutation | Potency, µM (series often up to 76.9 µM), inactives show at the top dose activity change, negative = inhibition, hits mostly inhibitors | hit rate 0.4% among 340,000 | gsp-mutant cells, cAMP HTRF, 30 min; control for the full effect not named in the record | AID 624288; active = falling curve of any shape with a large fitted effect; inconclusive = falling curve, mostly with a smaller effect; inactive = flat or rising curve; cell line not stated here;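 further: intracellular cAMP measured with PDE inhibitor Ro 20-1724 present during compound exposure; potency means the concentration at half of the fitted maximal effect; on the % scale 0 is the no-effect control and ±100 the full control effect; nearly all actives have a fitted effect of over 65% in size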
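G418-selected cells were plated in DMEM/10% FBS for 16-24 h at 37C, then treated with compounds plus the PDE inhibitor […] (300 uM solution added) for 30 min at 37C. Intracellular cAMP was measured by HTRF after 30 min lysis at room temperature.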
TRPML1 inh: inhibitors of human TRPML1 channel; AID 624415; activity change, negative = inhibition, % (test concentration not listed); hit rate 0.02% among 390,000; TRPML1-inducible cells, Ca2+ dye fluorescence, FDSS; active compounds read low; inhibition of EC80 agonist-evoked calcium signal; Q9GZU1; in the data active means activity change below about -50%; inconclusive means about -30% to -50%; inactive means above about -30%;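 further: stimulus is agonist 54-4 at its EC80 concentration; on the % scale 0 is the no-effect control and ±100 the full control effect; compound concentration not given in the record; the text of the record puts the active cut at -80%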
Target sequence (Q9GZU1 whole entry, looked up): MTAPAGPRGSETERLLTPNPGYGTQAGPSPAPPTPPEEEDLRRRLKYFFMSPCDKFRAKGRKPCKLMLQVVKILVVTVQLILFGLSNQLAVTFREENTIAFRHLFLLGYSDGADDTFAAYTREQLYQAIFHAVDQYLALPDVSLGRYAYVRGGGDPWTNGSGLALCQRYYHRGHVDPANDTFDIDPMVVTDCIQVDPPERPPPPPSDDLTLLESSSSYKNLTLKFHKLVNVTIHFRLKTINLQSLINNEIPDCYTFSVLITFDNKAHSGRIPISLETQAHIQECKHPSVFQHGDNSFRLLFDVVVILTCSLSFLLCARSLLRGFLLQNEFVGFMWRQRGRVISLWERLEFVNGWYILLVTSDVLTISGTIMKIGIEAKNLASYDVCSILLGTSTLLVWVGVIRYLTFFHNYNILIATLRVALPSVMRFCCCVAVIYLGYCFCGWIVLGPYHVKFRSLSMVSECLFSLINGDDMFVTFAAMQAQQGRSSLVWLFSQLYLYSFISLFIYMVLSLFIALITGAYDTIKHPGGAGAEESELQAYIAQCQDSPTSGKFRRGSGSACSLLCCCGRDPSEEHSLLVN
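Tet-induced TRPML1-DL cells loaded with Ca8 no-wash calcium dye were read kinetically on FDSS. Compound addition was followed by EC80 agonist 54-4 (4 uM final); inhibition was read over 110 s.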
TRPML1 agonist: agonists of human TRPML1 channel. Q9GZU1. TRPML1-expressing cells, Ca2+ dye fluorescence, FDSS; host cell line not named in the record; reference of the full effect not given here. activation, % (test concentration not listed). hit rate 0.12% among 410,000. AID 624414; in the data active = activation above about 50%; inconclusive = about 30% to 50%; inactive = below about 30%; further: 0% is about no effect; the text of the record puts the active cut at 80%
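Agonist activity was taken from a 110 s kinetic Ca2+ dye read on the FDSS after pinning compounds onto TRPML1-DL cells. The cells were seeded at 1,500/well with Tet inducer, incubated about 16 h, then dye-loaded at room temperature.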
ClpP mod: qHTS Assay for Activators of ClpP | purified B. subtilis ClpP, FRET peptide cleavage, 20 min | Potency, µM (series often up to 57.5 µM), for inactives: at the highest dose activity change, negative = active | hit rate 1.9% among 340,000 | AID 651965, 2013; active = well fitted falling curve with a large enough effect; inconclusive = small, poorly fitted or top-dose-only effect; inactive = no such curve, though single readings can be large or run the other way; further: potency means the concentration at half of the fitted maximal effect; the source files actives as falling curves though it sought activators and does not explain the sign; nearly all actives have a fitted effect of over 65% in size; many hits overshoot -100%
Target sequence (P80244 whole entry, looked up): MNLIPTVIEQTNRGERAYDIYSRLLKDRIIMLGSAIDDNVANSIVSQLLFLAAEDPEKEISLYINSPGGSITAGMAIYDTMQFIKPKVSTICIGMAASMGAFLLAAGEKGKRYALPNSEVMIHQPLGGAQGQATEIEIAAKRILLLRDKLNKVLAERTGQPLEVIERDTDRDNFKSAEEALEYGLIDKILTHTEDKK
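Purified B. subtilis ClpP, 10 microg/mL final in Tris/HCl pH8 with KCl, BSA, glycerol and Tween-20, cleaved an Abz/nitrotyrosine-quenched decapeptide. Fluorescence (ex 320, em 430) was read at 0 and 20 min at room temperature. Delta was normalized to 5.8 microM ADEP and DMSO/no-enzyme controls.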
Active calls of the source: *; ? = inconclusive; nt = no result given; [ ] = remark or other dose.

SMILES	gsp ag	Menin MLL FP FL	gsp antag	TRPML1 inh	TRPML1 agonist	ClpP mod
Cc1ccc(S(=O)(=O)n2oc(=O)c(C3CCCCC3)c2N)cc1	?	nt	-9%	4	1.6	nt
COc1ccc(S(=O)(=O)N/N=C(/C)c2ccncc2)cc1OC	27%	4.6	7%	15	-0.2	2.8%
COc1ccc(-c2ccnc3nc(-n4cccc4)nn23)cc1	2%	6.7	9%	-2	0.2	28µM*
CC(=O)Nc1ccc(NC(=O)c2ccccc2S(=O)(=O)c2ccc([N+](=O)[O-])cc2)cc1	?	5.7	9%	4	3.0	-0.4%
CC(C)NC(=O)CC(=O)NN=C1CCCCC1	-27%	-0.1	8%	1	-0.1	nt
COc1ccc(NC(=O)COc2ccccc2)cc1NC(=O)c1ccco1	-4%[15.4 µM]	-1.0	-12%	-2	-1.3	-0.4%
CC1(C)CC2(CC(c3cccs3)c3cc(Cl)c(O)cc3O2)NC(=S)N1 (stereo unspecified)	-34%[inhibitor]	3.6	10%	5	-1.7	-1.4%
O=C(N1CCOCC1)N(CCN1CCOCC1)Cc1cccc(Cl)c1	?	3.1	0%	5	0.1	-2.7%
O=C1CCN(Cc2ccccc2)C(=O)N1c1ccccc1	14%	3.5	-7%	-3	1.0	nt
Cc1cccc(/C=N\N=C\c2cccc(C)c2)c1	-2%[15.4 µM]	0.1	3%	-4	1.3	-0.1%
O=C(N/N=C/c1ccc(Cl)cc1Cl)c1n[nH]c2c1CCCC2	6%	nt	10%	-10	-0.3	2.1%
O=C(O)CNS(=O)(=O)c1cccc2nsnc12	-5%	-2.7	3%	-2	-1.1	-1.7%
Cc1ccc(S(=O)(=O)N2C[C@H]3C(=O)C[C@@H](c4ccccc4)N(S(=O)(=O)c4ccccc4C)[C@H]3C[C@H]2c2ccccc2)cc1	nt	nt	nt	?	2.4	-0.8%
CC1CCCN(S(=O)(=O)c2ccc3c(c2)OCCO3)C1 (stereo unspecified)	-32%[inhibitor]	nt	nt	1	-0.4	-0.4%
COc1cccc(-c2noc(CCC(=O)N3CCN(c4cc(C)ccc4C)CC3)n2)c1	nt	nt	?	-13	-1.2	-15%
CN(C)c1ccc(/C=N/NC(=O)c2ccc(CN3CCOCC3)cc2)cc1Br	1%[15.4 µM]	-7.5	16%	6	-0.2	nt
C[C@@H]1[C@H]2CCCC[C@H]2CN(C(=O)OC(C)(C)C)[C@@H]1c1cn(Cc2ccccc2)c2ccc(F)cc12	nt	nt	5%	7	0.1	-11%
CCNc1nc(SCCOc2ccc(C)cc2)nc(N(C)C)n1	17%	-1.7	-12%	-2	-0.9	1.1%
CCc1nnc(NC(=O)[C@@H](NC(=O)c2cccc(C)c2)C(C)C)s1	-32%[inhibitor]	-5.0	1%	-18	1.4	0.9%
Nn1c(SCC(=O)Nc2ccc(S(N)(=O)=O)cc2)nnc1C(F)(F)F	?	2.1	-2%	-3	0.0	0.4%

Some values from the list.
TRPML1 agonist, O=C(N/N=C/c1ccc(Cl)cc1Cl)c1n[nH]c2c1CCCC2 : -0.3
ClpP mod, C[C@@H]1[C@H]2CCCC[C@H]2CN(C(=O)OC(C)(C)C)[C@@H]1c1cn(Cc2ccccc2)c2ccc(F)cc12 : -11%
TRPML1 inh, COc1cccc(-c2noc(CCC(=O)N3CCN(c4cc(C)ccc4C)CC3)n2)c1 : -13

Other results:
SMILES	gsp ag	Menin MLL FP FL	gsp antag	TRPML1 inh	TRPML1 agonist	ClpP mod
Cc1ccc(S(=O)(=O)N2CCN(S(=O)(=O)c3c(C)n[nH]c3C)CC2)cc1C	-23%	nt	17%	5	-0.2	1.6%
CC(C)c1ccc(O)c(NC(=S)NC(=O)c2cccnc2)c1	2%[15.4 µM]	2.9	nt	1	0.2	nt
Cc1cc(C)n(C(=O)c2cccc([N+](=O)[O-])c2C)n1	-82%	1.6	2%	nt	nt	2.5%
Cc1csc2ncc(C(=O)N3c4ccccc4CC3C)c(=O)n12 (stereo unspecified)	4%	2.2	-8%	-11	1.1	-25%
Cc1ccnc(NC(=O)CCC(=O)N(CC(=O)NC2CCCCC2)c2cccc(C)c2C)c1	7%	4.4	8%[15.4 µM]	10	-0.2	-0.5%
Cc1cccc(OC(C)C(=O)N(Cc2cccs2)C2CCS(=O)(=O)C2)c1C (stereo unspecified)	-31%[inhibitor]	-0.5	-17%	10	0.0	-3.0%
Cc1ccc(C(=O)NCCSc2c(C)[nH]c3ccccc23)cc1[N+](=O)[O-]	-39%[inhibitor]	2.9	35µM*	7	1.5	0.6%
Cc1ccc(/C=C2\SC(=S)N(CCCC(=O)Nc3cc(C)on3)C2=O)cc1	?	5.4	?	-3	-0.6	-2.7%
O=C(CC1=NCCNC(c2ccccc2)C1)c1ccccc1O (stereo unspecified)	-20%	1.7	7%	-12	0.2	0.7%
Cc1ccnc2nc(C(=O)OCC(=O)Nc3ccccc3C(C)(C)C)nn12	27%	-3.3	4%	-5	1.0	-2.1%
Cc1nc2ccccn2c1/C(O)=C1\C(=O)C(=O)N(CCN(C)C)C1c1ccco1 (stereo unspecified)	12%	-4.4	0%	1	-0.7	nt
Cc1cccc(NS(=O)(=O)c2cccc(C(=O)N3CCN(c4ccccn4)CC3)c2)c1	-47%[inhibitor]	0.1	?	-14	2.3	-2.9%
COc1ccccc1-c1nnc(SCC(=O)Nc2ccc(S(N)(=O)=O)cc2)n1C	-28%	-1.7	0%	-4	1.7	-1.8%
S=C(c1ccccc1)N1CCN(C(=S)c2ccccc2)CC1	-8%	4.6	10%	-5	0.5	0.7%
Cc1ccc(N(C(=O)C2CCCO2)C2C=CS(=O)(=O)C2)cc1Cl (stereo unspecified)	1%	2.8	3%	11	0.8	-1.3%
C=C1C(=O)[C@]23C[C@H]1CCC2[C@@]1(C)C(C[C@@H]3O)[C@](C)(C(=O)OC)CC[C@@H]1OC(C)=O (stereo partly specified)	nt	nt	nt	-9	12	-2.4%
COc1cc(NC(=O)c2ccc(-c3ccc(Br)cc3)o2)ccc1NC(=O)C(C)C	21%	3.4	-3%	34	-0.2	263%
C=CC[C@H](CC(=O)N(CCO)Cc1ccccc1)C(=O)N[C@@H](COC(=O)[C@H](CC=C)CC(=O)OC(C)(C)C)Cc1c[nH]c2ccccc12	-12%	nt	-24%	-5	1.5	3.8%
COc1ccc(-c2nnc(SCC(=O)NCc3cccs3)n2C(C)C)cc1	7%	-0.7	-5%	35	-1.1	-2.3%
CN(Cc1ccccc1)C(=O)COC(=O)c1ccccc1NS(=O)(=O)c1cccc(N)c1	7%	1.5	-16%	4	0.3	1.3%
CCNC(=O)COc1cccc(C(=O)NCc2ccccc2)c1	-18%	-0.9	8%	0	-0.2	1.5%
COCC1CCCCN1C(=O)c1ccc(OC2CCN(Cc3ccccn3)CC2)cc1 (stereo unspecified)	-11%[15.4 µM]	1.4	-3%	-4	0.6	1.7%
Cc1ccc(NC(=O)CCNC(=O)Cn2ccc3ccccc3c2=O)cc1F	-74%[inhibitor]	-2.5	10%	-27	0.4	nt
Cc1nc2scc(-c3ccccc3)c2c(=O)o1	18%	11	1%	32	2.5	-0.6%
O=c1[nH]c(SCc2cccc(F)c2)nc2c1CCCC2	7%	6.7	4%	-5	2.3	-1.6%
Cc1ccc(S(=O)(=O)C(CCC(=O)N2CCOCC2)S(=O)(=O)c2ccc(C)cc2)cc1	-23%	6.6	-22%	0	-0.2	-2.1%
COc1ccccc1OCc1nnc(SCCN2CCOCC2)o1	15%	2.9	4%	10	0.1	2.3%
COc1ccccc1-c1nc(C#N)c(N2CCc3ccccc3C2)o1	2%	4.5	-7%	8	2.2	17%
O=C(COc1ccccc1/C=C\c1[nH]c(=O)[nH]c(=O)c1[N+](=O)[O-])Nc1ccccc1	-49%[inhibitor]	5.7	-10%	-18	1.6	nt
Cn1c(=O)c2c(-c3ccccc3)n3c(c2n(C)c1=O)C(c1ccc([N+](=O)[O-])cc1)Nc1ccccc1-3 (stereo unspecified)	nt	nt	nt	-1	-1.1	-6.0%

Quoted from the listing (two entries):
SMILES	gsp ag	Menin MLL FP FL	gsp antag	TRPML1 inh	TRPML1 agonist	ClpP mod
CCNC(=O)COc1cccc(C(=O)NCc2ccccc2)c1	-18%	-0.9	8%	0	-0.2	1.5%
COCC1CCCCN1C(=O)c1ccc(OC2CCN(Cc3ccccn3)CC2)cc1 (stereo unspecified)	-11%[15.4 µM]	1.4	-3%	-4	0.6	1.7%

More structures follow:
SMILES	gsp ag	Menin MLL FP FL	gsp antag	TRPML1 inh	TRPML1 agonist	ClpP mod
CN(CCCC(=O)NCCc1ccccc1)S(=O)(=O)c1ccc([N+](=O)[O-])cc1	-35%	-2.8	0%	-8	-0.4	nt
CCC1Sc2ccc(S(=O)(=O)CCC(=O)Nc3ccc(NC(C)=O)cc3)cc2NC1=O (stereo unspecified)	21%	-3.9	18%	36	-0.6	-3.0%
FC(F)(F)c1ccc(CSc2nccn2-c2ccccc2)cc1	12%	0.4	-4%	22	1.4	-7.3%
Cc1ccc(S(=O)(=O)Nc2ccc(-c3ccc(N4CCCCCC4)nn3)cc2)c(C)c1	nt	nt	nt	33	-0.7	-10%
O=C(C[C@H]1C[C@H](C(=O)N2CCOCC2)[C@@]2(CCC3CCCC3)c3[nH]c4ccc(Cl)cc4c3CCN2C1=O)NCC12CC3CC(CC(C3)C1)C2	nt	nt	10%	7	-0.1	-2.2%
COc1ccc(C(CC(=O)NCCCN2CCOCC2)NS(=O)(=O)c2ccc(C)cc2)cc1 (stereo unspecified)	?	5.5	9%	4	0.1	-3.4%
O=C(Oc1ccccc1)c1c(Cl)cccc1P(=O)(O)O	-3%	-0.6	0%	6	-0.8	0.6%
COc1cccc(C(=O)NCC(=O)OCC(=O)c2ccccc2)c1	?	-1.0	1%	-11	0.9	-2.9%
CC(=O)c1c(N2CCN(C)CC2)nc(=S)n(Cc2ccccc2)c1C	6%	0.1	7%	6	1.0	-0.9%
Cc1cccc(/C(N)=N/OC(=O)c2ccc(F)cc2)c1	26%	11	19%	6	0.3	2.0%
COc1ccc(C(=O)CSc2nc3nc(C)cc(C)n3n2)cc1OC	-40%[inhibitor]	-0.8	3%	5	-0.3	1.6%
Cc1cc(=O)nc2c3ccccc3n(CC(=O)NCCCN3CCCCC3C)n12 (stereo unspecified)	-5%	nt	6%	3	-0.4	4.3%
COC(=O)c1ccc2c(=O)n(CCCCCC(=O)NCc3ccccn3)c(=O)[nH]c2c1	3%	-1.3	-13%	8	-0.4	32µM*
O=C(NCCCn1ccnc1)C1CCCN(S(=O)(=O)c2cc(Cl)ccc2Cl)C1 (stereo unspecified)	-18%[15.4 µM]	-0.5	16%	-8	-0.9	-0.1%
CC(=O)c1c(C)nc(-c2ccc(OCC(=O)Nc3cccc(C)c3C)cc2)n1O	4%	-2.3	-6%	13	1.5	3.1%
COc1ccc(CCNC(=O)C2CCCN(c3nc4ccccc4s3)C2)cc1OC (stereo unspecified)	-3%	-2.2	0%	23	0.3	nt

Not a hit list. About 2.1% of those tested had a hit in this group.
